UCH37 inh: human UCH37 deubiquitinating enzyme inhibition; purified proteasome/UCH37, Ub-AMC cleavage fluorescence; 330,000 compounds, 0.33% hits; inhibition, % (concentration not given with the values);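 active means mean of two replicates above 20%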;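 further: 0% = compound-free wells with enzyme and 100% = wells lacking proteasome; stock transfer was 100 nL into about 20 µL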
Target sequence (Q9Y5K5 whole entry, looked up): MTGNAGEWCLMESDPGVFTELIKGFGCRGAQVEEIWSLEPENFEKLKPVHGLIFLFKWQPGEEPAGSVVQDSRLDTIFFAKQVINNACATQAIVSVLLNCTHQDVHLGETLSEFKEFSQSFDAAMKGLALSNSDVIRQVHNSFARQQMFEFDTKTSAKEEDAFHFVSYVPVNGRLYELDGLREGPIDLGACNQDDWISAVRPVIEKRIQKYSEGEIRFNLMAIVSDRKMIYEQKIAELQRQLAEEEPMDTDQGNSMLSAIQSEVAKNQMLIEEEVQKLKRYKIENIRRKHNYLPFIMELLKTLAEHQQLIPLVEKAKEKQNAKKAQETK
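Assay system: Proteasome-bound UCH37. Buffer or medium: pH 7.4 Tris-HCl (50 mM) with ovalbumin, ATP-MgCl2, DTT. Incubation: 30 min preincubation with enzyme, 25 min cleavage at room temperature. Measured by: fluorescence, ex 355 nm, em 460 nm. Read-out basis: percent inhibition. Control set: wells without proteasome as full block, compound-free enzyme plus substrate as uninhibited.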
RanGTP-Impb inh: disruptors of Ran-importin-beta complex formation – biochemical, FRET, CFP-Ran, YFP-importin-beta, homogeneous, primary screen. cell-free CFP-Ran/YFP-importin-beta FRET ratio. 300,000 compounds, 1.1% hits. inhibition, % (no concentration beside the values). AID 2216;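 active means most replicates above 15%; inconclusive means exactly half above 15%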;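 further: 0% = DMSO wells and 100% = Ran loaded with GDP instead of GTP; wells of about 40 µL received 100 nL stock; the first replicate is given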
Calb FLC: affects C. albicans growth with fluconazole. C. albicans CaCi-2 (fluconazole-resistant clinical isolate) + fluconazole, Alamar Blue growth, 48 h. growth inhibition, % (test concentration not listed). 300,000 compounds, 0.57% hits;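 active means most replicates above 75%; inconclusive means exactly half above 75%; inactive means most below 75%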;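 further: all wells also contain fluconazole at 8 µg/ml as a sub-toxic cotreatment; 0% = median of DMSO wells and 100% = median of geldanamycin control wells; wells of about 8 µL received 7.5 nL stock; the first replicate is given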
B2AR ag: human beta-2 adrenergic receptor agonism by FAP; P07550; 340,000 compounds, 0.43% hits; response, % (concentration not given with the values); Am2.2-beta2AR cells, FAP receptor internalization, flow cytometry; reference of the scale not given here; AID 504454;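 active means response above a set limit, near 3 SD of response in nonfluorescent compounds, cut at about 42% in these data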;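 further: stock transfer was 100 nL into about 11 µL; a reference agonist was the positive control; negative values mostly stem from fluorescent compounds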
Target sequence (P07550 whole entry, looked up): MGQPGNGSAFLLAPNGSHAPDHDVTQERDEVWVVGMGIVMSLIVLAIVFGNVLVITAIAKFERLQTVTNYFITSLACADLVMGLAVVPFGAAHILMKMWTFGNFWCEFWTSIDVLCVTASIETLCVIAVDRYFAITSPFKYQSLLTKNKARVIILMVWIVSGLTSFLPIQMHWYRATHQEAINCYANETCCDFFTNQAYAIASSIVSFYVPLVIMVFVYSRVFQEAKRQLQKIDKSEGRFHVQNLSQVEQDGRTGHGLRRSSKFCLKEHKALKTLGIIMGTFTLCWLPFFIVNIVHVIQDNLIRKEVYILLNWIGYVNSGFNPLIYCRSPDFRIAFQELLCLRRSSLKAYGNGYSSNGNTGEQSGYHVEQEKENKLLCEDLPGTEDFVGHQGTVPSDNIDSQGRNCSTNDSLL
Bfl-1 A1 inh: inhibitors of the anti-apoptotic protein A1, read as caspase activation | AID 2462 | 330,000 compounds, 0.066% hits | MEF A1-2A-BIM cells, Caspase-Glo 3/7 luminescence, 3 h; percent of clofoctol response, vehicle zero | caspase activation, % (test concentration not listed);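 active means over half of replicate activation scores above 10%, or exactly half above 10 with the replicate mean above 10; inconclusive means replicate mean below 10 yet half the replicates above 10; inactive means over half of replicates below 10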;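 further: wells of about 30 µL received 50 nL stock; many hits fall short of the cut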
LANA-H2A inh: blocks KSHV LANA binding to histone H2A/H2B; cell-free LANA-H2A/H2B peptide, fluorescence polarization; inhibition, % (concentration not given with the values); AID 2629; 320,000 compounds, 0.6% hits; in the data active means inhibition mostly above about 10%, no sharp cut-off; inactive means mostly below about 6.7%;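 further: stock transfer was 7.5 nL into about 10 µL; 0% = median of vehicle wells and 100% = median of positive control wells; one replicate is shown; the record names a cut of 25% in any replicate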
Beta apoptosis: blocks beta cell apoptosis. AID 435005. INS-1E cytokine-induced death, ATP luminescence, 48 h; percent of positive-control rescue, neutral wells zero. protection from apoptosis, % (no concentration beside the values). 300,000 compounds, 0.8% hits;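 active means all replicates at 75% or more, or half of them and the mean; inconclusive means half reach 75% but not the mean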;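 further: 0% = cytokine-treated negative control wells and 100% = positive control rescue; higher means more ATP so stronger rescue from cytokine killing; wells of about 40 µL received 100 nL stock; the first replicate is given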
T cruzi repl: T. cruzi replication inhibition | T. cruzi beta-gal in NIH3T3, luminescence, 90 h | inhibition, % (concentration not given with the values) | 300,000 compounds, 1.4% hits;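 active means mean inhibition across valid replicates above about 55%, limit read from the data; inconclusive means mean below that limit but half or more replicates reach it; inactive means mean below it, under half of replicates reach it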;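 further: signal also drops with host cell toxicity which is not excluded here; 0% = plate median of DMSO wells and 100% = zero luminescence signal; higher percent means less beta-gal luminescence so fewer parasites; stock transfer was 50 nL into about 50 µL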
An asterisk follows results filed as active; ? = inconclusive; . = no result given.

SMILES | UCH37 inh | RanGTP-Impb inh | Calb FLC | B2AR ag | Bfl-1 A1 inh | LANA-H2A inh | Beta apoptosis | T cruzi repl
O=C(COC(=O)/C=C/c1ccccc1Cl)NCCc1ccc(Cl)cc1Cl | 0.6 | 2.0 | -4 | -4 | -0.8 | -2.1 | 2 | -6
CCCCC(O)(CCCC)C(=O)NNc1ccccc1 | 1.4 | ? | 4 | 1 | -0.5 | 6.2 | -13 | 4
O=C1Nc2ccccc2/C1=C/c1cccnc1 | 1.6 | 3.0 | -5 | -11 | 0.1 | -0.3 | -1 | -29
CN(CCNC(=O)C1CCN(c2ncnc3c2nc2n3CCCCC2)CC1)Cc1ccccc1 | 0.5 | 7.7 | 2 | 2 | -0.2 | 3.7 | 4 | 26
Cc1ccccc1N1CCN(C2CCCN(C(=O)c3cn4cccc(C)c4n3)C2)CC1 (stereo not given) | -0.9 | -3.9 | -35 | 11 | . | . | . | 11
Cn1cnnc1SCC(=O)Nc1ccc(Cl)cc1 | 1.7 | -4.8 | 20 | -5 | -0.1 | -2.5 | -4 | -15
Oc1ccccc1-c1cc(-c2ccccc2)no1 | 7.5 | -1.2 | -4 | 2 | -13 | -0.5 | 0 | -2
CCOC(=O)C1=C(C)NC(C)=C(C(=O)OCC)C1C(=O)OCC(N)=O | -35 | -0.2 | -4 | 7 | 0.1 | -1.3 | -7 | -14
COC(=O)CNC(=O)C(Cc1ccccc1)NS(=O)(=O)c1ccc2c(c1)c(=O)n(C)c(=O)n2C (stereo not given) | -4.0 | 2.5 | 0 | 2 | 0.3 | 0.2 | -1 | 0
Cc1cccn2c(=O)c3cc(C(=O)NCCc4ccccc4)sc3nc12 | -218 | 0.2 | 26 | 2 | 0.4 | -0.1 | 3 | 17

Entries above that contain four or more nitrogen atoms (4):
SMILES | UCH37 inh | RanGTP-Impb inh | Calb FLC | B2AR ag | Bfl-1 A1 inh | LANA-H2A inh | Beta apoptosis | T cruzi repl
CN(CCNC(=O)C1CCN(c2ncnc3c2nc2n3CCCCC2)CC1)Cc1ccccc1 | 0.5 | 7.7 | 2 | 2 | -0.2 | 3.7 | 4 | 26
Cc1ccccc1N1CCN(C2CCCN(C(=O)c3cn4cccc(C)c4n3)C2)CC1 (stereo not given) | -0.9 | -3.9 | -35 | 11 | . | . | . | 11
Cn1cnnc1SCC(=O)Nc1ccc(Cl)cc1 | 1.7 | -4.8 | 20 | -5 | -0.1 | -2.5 | -4 | -15
COC(=O)CNC(=O)C(Cc1ccccc1)NS(=O)(=O)c1ccc2c(c1)c(=O)n(C)c(=O)n2C (stereo not given) | -4.0 | 2.5 | 0 | 2 | 0.3 | 0.2 | -1 | 0

More compounds:
SMILES | UCH37 inh | RanGTP-Impb inh | Calb FLC | B2AR ag | Bfl-1 A1 inh | LANA-H2A inh | Beta apoptosis | T cruzi repl
COc1ccc2c(c1)[nH]c1c(N3CCSCC3)ncnc12 | -6.7 | -5.9 | -6 | 1 | -1.1 | -2.3 | 3 | -1
Cc1c(Br)c(C(=O)NNC(=O)c2ccc(C(C)(C)C)cc2)nn1C | 5.0 | -4.1 | -6 | -3 | 0.1 | 2.6 | 3 | 15
c1ccc(CN(Cc2ccccc2)Cc2nnc(-c3cc4ccccc4[nH]3)s2)cc1 | -109 | . | . | 5 | -0.3 | -4.0 | -2 | .
COc1cccc(NS(=O)(=O)c2cc3[nH]c(=O)c(=O)[nH]c3cc2C)c1 | 7.1 | 1.4 | -20 | -2 | 1.0 | -0.5 | 3 | -12
CC(=O)Nc1ccc(C(=O)OCCC(C)C)cc1 | 2.9 | 5.0 | -1 | -10 | 0.1 | 2.9 | 4 | 4
CN(C)CCN(C(=O)c1cccc(N2C(=O)CCC2=O)c1)c1nc2ccc(Br)cc2s1 | 4.4 | 0.5 | -2 | 7 | 0.4 | 1.6 | -14 | 22
O=C(COC(=O)c1ccc(Cl)nc1)Nc1cc(S(=O)(=O)N2CCCCC2)ccc1Cl | 2.8 | -2.0 | -24 | 9 | 0.2 | . | -15 | 4
CN(C)CCCN(C(=O)CCc1ccccc1)c1nc2ccc(Cl)cc2s1 | 2.7 | 1.7 | 4 | 18 | 0.8 | -0.5 | 5 | 51
Fc1ccccc1-c1nnc2n1N=C(c1ccc(OC(F)F)c(OCC3CC3)c1)CS2 | 1.1 | . | . | 0 | -2.4 | 2.5 | 8 | .
CCOC(=O)c1cc(-c2ccccc2)n(CC(=O)Nc2cc(OC)cc(OC)c2)c1C | 1.0 | 9.6 | 7 | -1 | 0.3 | 2.7 | -4 | 26
Cc1cc(C(=O)Nc2ccccc2C)on1 | 1.1 | 10.0 | 13 | 5 | -0.1 | -1.3 | 6 | -32
CN1COc2ccc3ccccc3c2C1 | -15 | -3.6 | 55 | -1 | 0.5 | 0.8 | -4 | 5
CC(=O)N1CCCc2cc(S(=O)(=O)N3CCCC(C(=O)N4CCN(c5cc(C)ccc5C)CC4)C3)ccc21 (stereo not given) | 4.6 | -0.1 | -21 | 25 | 1.3 | 4.4 | 54 | 6
CCN(C(=O)CSc1ncccc1C(=O)OC(C)C)c1cccc(C)c1 | 2.9 | 1.6 | 13 | -5 | -0.4 | -3.9 | 3 | 22
CCN(CC(=O)Nc1ccc(OC)cc1)C(=O)COc1cccc2c1OC(C)(C)C2 | . | 5.1 | 4 | 3 | 0.1 | 0.2 | -2 | 0
CC(=O)Nc1ccc(S(=O)(=O)Nc2cc([N+](=O)[O-])ccc2C)cc1 | 1.8 | 0.3 | 4 | 3 | -0.3 | -1.9 | -3 | -16
Cc1ccc(S(=O)(=O)CCC(=O)OCC(=O)N(C)C2CCS(=O)(=O)C2)cc1 (stereo not given) | 0.8 | -1.6 | 1 | -2 | -0.1 | 2.7 | 2 | 0
Cc1c(C(=O)N2CCCC2)oc2ccc(Br)cc12 | 2.2 | -1.5 | -9 | -20 | -0.2 | -1.6 | 0 | 25
CC(C)Cc1nc(N2CCCCC2)c(C#N)c2c1CCC2 | -37 | -0.2 | -4 | 5 | 0.0 | 1.5 | -4 | 22
CCC(C)N(C(=O)CSc1ncnc2c1cnn2-c1ccccc1)C1CCS(=O)(=O)C1 (stereo not given) | 5.1 | ? | 0 | 1 | -5.6 | 6.1 | . | -2
Cc1noc(C)c1S(=O)(=O)Nc1ccc(C(C)C)cc1 | -0.5 | -0.9 | 5 | -7 | 0.5 | -5.1 | . | 8
Cc1ccsc1C(=O)NNC(=O)C1CC=CCC1C(=O)O (stereo not given) | 3.9 | 1.9 | -4 | 2 | 0.1 | 0.0 | -3 | -9
CCOc1cc(C(=O)OCc2ccc(OC)cc2)ccc1OCC(=O)N1CCOCC1 | 2.1 | . | . | 3 | -0.4 | -5.5 | -1 | .
CC(NC(=O)c1ccco1)c1cccc2ccccc12 (stereo not given) | 3.5 | 0.9 | 48 | 21 | 0.3 | 5.2 | -11 | -16
c1ccc(Nc2nc(-c3ccccc3)nc3ccccc23)cc1 | -69 | 4.9 | 4 | -3 | 0.6 | -3.2 | 15 | 27
O=C(NCc1ccc2c(c1)OCO2)c1ccc(Br)o1 | -1.6 | -0.5 | -5 | 8 | -0.8 | -0.3 | 9 | -15
CN(CC(=O)Nc1ccc(F)c(F)c1F)C(=O)Cn1cnc2c1c(=O)n(C)c(=O)n2C | 1.0 | . | . | -9 | 1.1 | 1.3 | -11 | .
O=C(Nc1nnc(-c2ccccc2)o1)c1nc2ccccc2s1 | -205 | 1.7 | 23 | 3 | 0.1 | -0.9 | . | -13
O=C1CN(C(=O)CSc2nc3c(cnn3-c3ccccc3)c(=O)[nH]2)c2ccccc2N1 | 5.7 | . | . | 13 | -0.4 | 3.8 | 6 | .
CC1CCN(C(=O)CSc2nc3ccccc3c(=O)[nH]2)CC1 | -0.2 | -1.3 | -10 | -5 | 0.1 | -1.8 | -3 | -14
Nc1c(Cl)cc2c(c1Oc1ccccc1)C(=O)c1ccccc1C2=O | 3.0 | -13 | 9 | -2 | -3.9 | 0.0 | 8 | 13
NC(=O)C1CCN(CC(=O)Nc2ccccn2)CC1 | 0.9 | -0.6 | -2 | 20 | 1.9 | -3.0 | -4 | -24
Cc1ccc(N2CC(NC(=O)N3CCN(C(=O)c4ccco4)CC3)CC2=O)cc1 (stereo not given) | -0.2 | 3.3 | 5 | -6 | 1.0 | -0.8 | -8 | 3
O=c1[nH]c(CN2CCN(S(=O)(=O)c3ccc4ccccc4c3)CC2)nc2ccccc12 | 2.4 | -3.4 | -6 | 9 | 0.7 | . | 3 | 44
O=C1C2C3CCCC3=C3CCCC3C2C(=O)N1c1ccc(F)cc1 (stereo not given) | 32* | 0.9 | -2 | -4 | 0.5 | 1.3 | -1 | 15
CCN(CC)C(=O)CSc1ncccc1-c1nc2ccccc2[nH]1 | -30 | . | -43 | -3 | 1.5 | -2.7 | 2 | 11
N/C(=N\OC(=O)c1ccc(=O)n(Cc2ccc(Cl)cc2)c1)c1ccccn1 | 2.1 | -1.1 | 5 | -10 | -0.5 | -0.9 | 0 | 11
COc1ccc(C(CNC(=O)c2cccc(N(C)C)c2)N2CCCC2)cc1 (stereo not given) | -17 | 0.3 | -19 | 3 | -0.4 | -5.6 | -2 | 18
O=C1CSc2ccc(S(=O)(=O)NCc3ccc(F)cc3)cc2N1 | 1.6 | 1.6 | ? | 7 | 0.2 | 2.5 | 5 | -1
C=CCN1C2CCCC1CC(NC(=O)Nc1cccc(C(C)=O)c1)C2 (stereo not given) | 3.4 | -0.4 | -1 | 7 | 0.3 | 3.5 | -1 | 6
O=C(/C=C/c1cccc(Cl)c1)NCc1ccncc1 | 5.2 | ? | 0 | 2 | 0.5 | 1.3 | -5 | -1
COc1ccc(C2=CC(=O)OC3(CCCCC3)O2)cc1 | 2.2 | 1.0 | -5 | -2 | -0.1 | 4.1 | -2 | -1
O=C(COC(=O)C1CCN(S(=O)(=O)c2cccs2)CC1)Nc1ccccc1 | 6.6 | -2.7 | -31 | 4 | 0.2 | -1.3 | -2 | -5
O=C(O)C12CC3CC(C1)CC(n1ncc(N4CCN(c5ccccc5)CC4)c(Cl)c1=O)(C3)C2 | 13 | 5.8 | -34 | -3 | -0.1 | -3.8 | -15 | -27
CC(=O)Nc1ccc(S(=O)(=O)N2CCN(CCc3ccccc3)CC2)cc1 | 1.1 | -0.8 | 1 | 2 | 0.0 | -0.7 | 1 | -5
O=S(=O)(c1ccccc1)c1nc(-c2ccccc2)oc1N1CCCC1 | -4.2 | -2.2 | -2 | -1 | -0.1 | 0.9 | -9 | -4
COc1cc(CCC(=O)OCC(=O)Nc2ccc3c(c2)OCO3)cc(OC)c1OC | 4.5 | ? | -10 | -2 | 0.7 | 13 | . | -14
CCOC(=O)c1c(C)nc2c3ccccc3ccn12 | 1.0 | -0.3 | 33 | 16 | -14 | 1.9 | -4 | -4

A different layout for two compounds above:
Under each structure: UCH37 inh | RanGTP-Impb inh | Calb FLC | B2AR ag | Bfl-1 A1 inh | LANA-H2A inh | Beta apoptosis | T cruzi repl
O=C(/C=C/c1cccc(Cl)c1)NCc1ccncc1
    5.2 | ? | 0 | 2 | 0.5 | 1.3 | -5 | -1
COc1ccc(C2=CC(=O)OC3(CCCCC3)O2)cc1
    2.2 | 1.0 | -5 | -2 | -0.1 | 4.1 | -2 | -1
